# Screening data: PubChem BioAssay, several laboratories
# PKD1 inh = inhibitors of human PKD1 kinase | PKD1 kinase fluorescence polarization assay | inhibition, %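 (about 10 µM by stock and volumes)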 | 0.056% of 200,000 active | AID 797;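 active = inhibition of 50% or more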;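 note: controls were vehicle for no effect and a reference inhibitor for full effect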
# RGS16-Gao HTS = regulators of human RGS16-Galphao interaction | O15492+P09471 | bead-based flow cytometry RGS16-Galphao binding, fluorescence; actives lie on both sides | binding response (% of control), % at 10 µM | 0.38% of 220,000 active;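 active = below 25% or above 175%, edge rows of some plates excepted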;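 note: Galphao activated by GDP with aluminum fluoride before binding; 100% = wells without compound and 0% = beads without RGS; some results beyond the cut were filed as inactive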
# Target sequence (O15492 whole entry, looked up): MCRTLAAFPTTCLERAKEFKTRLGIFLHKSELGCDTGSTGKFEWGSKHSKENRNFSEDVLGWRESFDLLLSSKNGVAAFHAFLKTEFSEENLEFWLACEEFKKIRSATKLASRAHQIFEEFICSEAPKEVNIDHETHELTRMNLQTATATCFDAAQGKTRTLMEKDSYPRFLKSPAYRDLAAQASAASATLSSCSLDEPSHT
# Target sequence (P09471 whole entry, looked up): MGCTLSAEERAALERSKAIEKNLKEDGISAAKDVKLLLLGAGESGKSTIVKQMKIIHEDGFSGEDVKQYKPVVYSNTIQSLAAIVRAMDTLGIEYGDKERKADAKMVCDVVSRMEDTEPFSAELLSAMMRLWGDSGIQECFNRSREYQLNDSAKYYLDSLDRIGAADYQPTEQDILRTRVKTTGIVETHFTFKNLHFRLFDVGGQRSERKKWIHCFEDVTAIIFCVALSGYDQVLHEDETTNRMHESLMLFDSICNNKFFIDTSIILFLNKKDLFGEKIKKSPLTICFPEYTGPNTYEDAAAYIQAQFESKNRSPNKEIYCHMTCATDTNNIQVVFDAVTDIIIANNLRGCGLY
# GALR2 agonist = activates the human galanin receptor 2; O43603; GALR2-expressing cells, agonist activation read-out; activation, %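 (tested at 5 µM)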; 0.48% of 140,000 active; AID 803;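 active = above mean plus 3 SD of all compounds, about 5% in these data, not always enough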;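 note: 0% = vehicle buffer wells and 100% = reference agonist at full effect; tested in CHO reporter cells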
# Target sequence (O43603 whole entry, looked up): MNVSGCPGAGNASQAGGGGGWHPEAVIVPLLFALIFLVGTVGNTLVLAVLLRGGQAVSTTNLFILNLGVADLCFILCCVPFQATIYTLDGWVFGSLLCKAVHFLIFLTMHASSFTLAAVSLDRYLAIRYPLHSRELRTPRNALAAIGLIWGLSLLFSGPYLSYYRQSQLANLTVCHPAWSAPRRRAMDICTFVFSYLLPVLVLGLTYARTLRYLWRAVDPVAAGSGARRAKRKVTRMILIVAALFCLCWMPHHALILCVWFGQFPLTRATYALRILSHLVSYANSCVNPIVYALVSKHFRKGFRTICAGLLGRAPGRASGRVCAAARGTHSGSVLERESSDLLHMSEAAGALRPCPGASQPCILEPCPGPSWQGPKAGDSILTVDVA
# INS promoter inh = TRM-6 insulin promoter activity inhibition. 0.9% of 130,000 active. AID 1273. inhibition, % at 2 µM. TRM-6 cells (human fetal islet line), insulin promoter-eGFP reporter, imaging; reporter expression induced with tamoxifen;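 active = inhibition above the mean plus 3 SD, with well images judged a real hit on visual review, cut at about 60% in these data, passing the limit was not always enough; inconclusive = inhibition over the cutoff but images rejected on review; inactive = inhibition not above the cutoff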
# HSV augment = increases HSV replication in cells; HSV replication augmentation in cells, fold increase; maximum fold increase; 0.005% of 220,000 active; AID 1956;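 active = peak rise of 1.5-fold or more in the series; inconclusive = self-fluorescent or not available for retest; tested in PC3 cells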;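 note: first round at 10 µM; read as green reporter fluorescence; hits show the peak of a series up to 25 µM; 1 = signal of infected wells without compound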
# INS promoter inh cell count = also measured in INS promoter inh; calls as there; normalized cell count, %; measured here: cell count, toxicity; reference of the scale not given here;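 cells exposed to compound for 48 h; stained nuclei by imaging scaled within each plate; lower means fewer cells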
# HSV augment primary fold = further read-out of HSV augment, marked with its call; fold increase; compound at 10 µM; measured here: primary screen fold increase 10 uM; tested in PC3 cells;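 GFP signal in the first replicate; 1 = infected wells without compound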
# * marks the source's active call; other numbers are inactive results; i = inactive; u = inconclusive; x = not tested or not shown; [ ] = remark or other dose.
SMILES,PKD1 inh,RGS16-Gao HTS,GALR2 agonist,INS promoter inh,INS promoter inh cell count,HSV augment,HSV augment primary fold
O=C(CCSc1nnc2ccccn12)Nc1ccc(F)cc1,-2,97,-3.1,-9,123,i,0.83
Cc1cc(C(=O)COC(=O)c2ccc3c(c2)NC(=O)CS3)c(C)n1CCc1ccc(Cl)cc1,7,95,x,x,x,i,0.91
CC(C)(C)OC(=O)N1CCC[C@H]1c1nnc(SCC(=O)Nc2ccc(Br)cc2)o1,x,99,x,x,x,i,0.92
Cc1nc2ccc(NS(=O)(=O)c3ccc(F)cc3)cc2s1,-1,105,x,13,172,i,1
COc1ccc(N(C(=O)c2ccccc2OC)C2C=CS(=O)(=O)C2)c(OC)c1 (centres undefined),6,101,-0.4,17,134,i,0.84
Cc1cc(C(=O)N2CCc3ccccc32)c2ccccc2n1,0,100,-1.6,x,x,i,1.2
CCn1nnnc1SCC(=O)c1cccc(OC)c1,2,96,0.7,29,219,i,1
CCCn1c(=O)[nH]c(=O)c2c1nc(-c1ccc3c(c1)OCCO3)n2CCN1CCOCC1,-9,98,0.2,x,x,i,0.94
CC(C)(C)NC(=O)NC(=O)COC(=O)CNS(=O)(=O)c1ccc(Br)cc1Cl,-5,107,x,0,82,i,0.95
O=C(NC1CCSC1=O)c1cccc(Cl)c1 (centres undefined),-8,103,x,x,x,i,0.93
Fc1ccccc1COc1ccccc1/C=N/Nc1nc(N2CCCC2)nc(N2CCCC2)n1,-2,101,-0.1,17,132,i,0.84
C=CCN(C(=O)Cn1ncc2c1-c1cc(C)ccc1OC2)c1ccccc1,-13,101,-1.5,x,x,i,1.1

# 5 entries from above, reformatted:
Molecule | PKD1 inh | RGS16-Gao HTS | GALR2 agonist | INS promoter inh | INS promoter inh cell count | HSV augment | HSV augment primary fold
O=C(CCSc1nnc2ccccn12)Nc1ccc(F)cc1 | -2 | 97 | -3.1 | -9 | 123 | i | 0.83
Cc1cc(C(=O)N2CCc3ccccc32)c2ccccc2n1 | 0 | 100 | -1.6 | x | x | i | 1.2
C=CCN(C(=O)Cn1ncc2c1-c1cc(C)ccc1OC2)c1ccccc1 | -13 | 101 | -1.5 | x | x | i | 1.1
CCCn1c(=O)[nH]c(=O)c2c1nc(-c1ccc3c(c1)OCCO3)n2CCN1CCOCC1 | -9 | 98 | 0.2 | x | x | i | 0.94
O=C(NC1CCSC1=O)c1cccc(Cl)c1 (centres undefined) | -8 | 103 | x | x | x | i | 0.93

# Further entries
SMILES,PKD1 inh,RGS16-Gao HTS,GALR2 agonist,INS promoter inh,INS promoter inh cell count,HSV augment,HSV augment primary fold
O=C1c2ccccc2C(=O)C1c1ccncc1,6,101,-0.8,x,x,i,1
CCC1(CC)NC(=S)N(Nc2ccccc2)C1=O,-6,117,-0.8,-34,132,i,1.1
Cc1cc(Cl)ccc1NC(=S)NCc1ccccc1,-8,98,-1.9,4,93,i,0.94
O=C(Nc1ccccc1)c1cccc(-c2nnc(-c3ccccc3)o2)c1,-8,102,-3.2,38,101,u,x
CN(C)S(=O)(=O)Nc1ccccc1F,2,105,x,x,x,i,0.94
COc1ccc(N2CCN(c3oc(COc4ccc(Cl)cc4)nc3C#N)CC2)cc1,-9,102,-2.8,x,x,i,1
COc1ccc(CCNC(=O)c2ccc3c(=O)n(Cc4ccco4)c(=S)[nH]c3c2)cc1OC,-9,102,-1.2,38,110,i,0.96
Cc1ccc(C(=O)NC(O)C(Cl)Cl)cc1 (centres undefined),-1,175*[activator],-1.3,-56,138,i,0.89
CCOc1ccc2sc(NS(=O)(=O)c3ccc(N)cc3)nc2c1,x,113,x,x,x,i,0.98
O=S(=O)(Cc1ccc(Cl)cc1)N1CCN(Cc2ccccc2)CC1,-2,101,-2.5,33,88,i,1.1
CCc1ccc(-n2c(C)n[nH]c2=S)cc1,-7,98,x,x,x,i,1
CCCC(=O)OCCNc1cc(SCc2ccco2)c2nonc2c1[N+](=O)[O-],-1,90,-0.5,37,109,i,1
O=C(NCc1ccco1)C1CCCN(S(=O)(=O)c2cnc[nH]2)C1 (centres undefined),7,160,-2.2,x,x,i,1.1
N#CNC(=Nc1cccc(F)c1)SCc1ccccc1F,-3,107,-1.4,50,95,i,0.68
Cc1ccccc1Nc1nc(N)nc(COC(=O)CCS(=O)(=O)c2ccccc2)n1,-20,97,-1.2,x,x,i,0.88
CC12CN3CCN(CC(C3)/C1=N\N=C1/C3CN4CCN(C3)CC1(C)C4)C2,-6,108,-1.1,-47,9,i,1.1
CCOC(=O)Cc1csc(NC(=O)CSc2nnnn2-c2ccc(C)c(C)c2)n1,-8,110,-1.3,51,95,i,1
CCCCCCC1C(C#N)=C(N)OC2=C1C(=O)CC(C)(C)C2 (centres undefined),-1,99,-1.7,x,x,i,0.89
Cc1ccc(/C=N/NC(=O)c2ccc3c(c2)OCCO3)s1,x,106,x,x,x,i,0.7
CCC(C)(C)n1nnnc1C(c1ccc(F)cc1)N1CCC(C(N)=O)CC1 (centres undefined),-6,99,x,x,x,i,1.1
Cn1c(NC(=O)c2ccccc2)c(-c2cccs2)c(=O)c2ccccc21,-17,94,-4.2,14,38,i,1
CN(C(=O)c1ccccc1Cl)C1CCCCC1,-13,59,-0.5,-5,71,i,0.9
Nc1ccc2oc(CCc3ccccc3)nc2c1,-1,90,-0.5,-50,161,i,0.9
CCn1cc([N+](=O)[O-])c(C(=O)N2N=C3/C(=C/c4cccs4)CCCC3C2c2cccs2)n1 (centres undefined),11,84,-0.8,-335,62,i,0.88
CC(NC(=O)C1CCC(CNc2c(N3CCOCC3)c(=O)c2=O)CC1)c1ccccc1 (centres undefined),-8,100,-2.2,x,x,i,0.95
O=C(O)c1cccc(N2C(=O)/C(=C/c3ccc([N+](=O)[O-])cc3)C=C2c2ccccc2)c1,1,93,x,36,55,i,1.1
Fc1ccccc1N1CCN(C(c2ccccn2)c2nnnn2C2CCCCC2)CC1 (centres undefined),1,89,-1.6,x,x,i,1
CC(C)(C)c1ccc(-c2n[nH]c(=S)n2C2CCCC2)cc1,2,102,0.5,-22,107,i,1
COC(=O)C(C)N(C(=O)c1cccc(Cl)c1)c1c(C)cccc1C (centres undefined),-13,106,-1.7,-17,89,i,1.1
C#CC1(NC(=O)N(C)C)CCCCC1,-4,107,x,x,x,i,1
C/C(=C\C(=O)c1ccc(Br)cc1)NCc1ccccc1,-4,121,-3.3,-58,110,i,0.82
CC(C)CC(=O)Nc1cc(NC(=O)CC(C)C)cc(C(=O)NC(C)(C)C)c1,0,103,-2.0,-37,91,i,1.1
Cc1cc(SC(C)C(=O)Nc2c(C)n(C)n(-c3ccccc3)c2=O)nc2ccccc12 (centres undefined),-11,97,-4.6,3,237,i,0.91
CCC(C)(C)n1nnnc1C(c1ccc(C)cc1)N1CCC(C)CC1 (centres undefined),2,105,-0.8,20,100,i,1.1
Cn1cccc1Cc1nnc(SCC(=O)NC2CCCCC2)n1CCc1ccccc1,4,103,-1.7,x,x,i,0.94
CCCc1ccc(S(=O)(=O)Nc2ccc(C)c(NS(C)(=O)=O)c2)cc1,x,99,x,x,x,i,0.99
O=C(Cn1nc(Cc2ccncc2)c2ccccc2c1=O)N1CCN(C(=O)c2ccco2)CC1,-2,99,-3.1,x,x,i,1.1
CCOC(=O)CSC1=N/C(=C\c2cc(OC)c(OC)c(OC)c2)C(=O)N1C,-7,47,-0.7,3,134,i,0.89
CC(C)(C)CNc1cc(N2CCOCC2)ccc1[N+](=O)[O-],0,102,x,-95,122,i,0.97
CC(=O)c1ccc(NC(=O)C(C)N(C)CC(=O)Nc2ccc(N3CCOCC3)cc2)cc1 (centres undefined),-9,97,x,-73,61,i,0.95
CCOC(=O)Cc1csc(NC(=O)CSc2cc(Cl)ccc2Cl)n1,-12,105,-1.5,11,105,i,1
O=C(CCNS(=O)(=O)c1cccc2nsnc12)N1CCN(c2ccccn2)CC1,1,107,-1.4,61,27,i,0.81
O=C(NC(Nc1ccccn1)C(Cl)(Cl)Cl)c1ccccc1 (centres undefined),1,91,x,29,50,i,1.2
COc1ccc(C2C(C(C)=O)=C(C)N=c3s/c(=C\c4ccco4)c(=O)n32)c(OC)c1 (centres undefined),2,104,-1.0,x,x,i,1.1
Cc1ccc(C)c(-n2c(CNc3ccc(F)cc3)nnc2SCC(N)=O)c1,-17,104,-1.6,x,x,i,1.4
COc1ccc(/C=N/NC(=O)c2cc(-c3ccc4c(c3)OCO4)n[nH]2)cc1OC,-17,96,1.2,x,x,i,0.74
Cc1cc(C(=O)COC(=O)CC2Sc3ccccc3NC2=O)c(C)n1-c1ccccc1 (centres undefined),4,84,-0.3,0,61,i,0.83
CC(C)(CO)NS(=O)(=O)c1ccc2c(c1)oc(=O)c1cc(S(=O)(=O)NC(C)(C)CO)ccc12,-9,106,0.8,-28,170,i,0.99
CC1(C)Cc2c(c(-c3ccco3)nc3sc4c(NCCO)ncnc4c23)CO1,2,100,x,55,107,i,1.1
CC(C)(O)C#Cc1ccc(C(=O)N2CCC(C(N)=O)(N3CCCCC3)CC2)cc1,-3,106,-0.5,x,x,i,0.72
CC1CCN(C(=O)c2ccc(-n3cnnn3)cc2)CC1,-3,104,-2.2,-346,35,i,1.2
CN(C)/C=C1/NC(=S)NC1=O,-4,142,x,x,x,i,1
N#Cc1c(C(F)(F)F)cc(-c2ccc(F)cc2)nc1SCC(=O)O,0,113,x,x,x,i,1.2
CCOC(=O)N1CCC(NC(=O)c2ccc(CS(=O)(=O)c3ccccc3C)o2)CC1,0,95,-2.0,x,x,i,0.98
CCOC(=O)c1cnc(-c2ccccc2)nc1N1CCOCC1,-4,105,x,-25,157,i,0.85
O=C(CCc1ccccc1)Nc1cc(C(F)(F)F)ccc1Cl,-2,100,-3.9,x,x,i,0.9

# Entries shown so far that have an aryl methoxy group, in the order listed:
SMILES,PKD1 inh,RGS16-Gao HTS,GALR2 agonist,INS promoter inh,INS promoter inh cell count,HSV augment,HSV augment primary fold
COc1ccc(N(C(=O)c2ccccc2OC)C2C=CS(=O)(=O)C2)c(OC)c1 (centres undefined),6,101,-0.4,17,134,i,0.84
CCn1nnnc1SCC(=O)c1cccc(OC)c1,2,96,0.7,29,219,i,1
COc1ccc(N2CCN(c3oc(COc4ccc(Cl)cc4)nc3C#N)CC2)cc1,-9,102,-2.8,x,x,i,1
COc1ccc(CCNC(=O)c2ccc3c(=O)n(Cc4ccco4)c(=S)[nH]c3c2)cc1OC,-9,102,-1.2,38,110,i,0.96
CCOC(=O)CSC1=N/C(=C\c2cc(OC)c(OC)c(OC)c2)C(=O)N1C,-7,47,-0.7,3,134,i,0.89
COc1ccc(C2C(C(C)=O)=C(C)N=c3s/c(=C\c4ccco4)c(=O)n32)c(OC)c1 (centres undefined),2,104,-1.0,x,x,i,1.1
COc1ccc(/C=N/NC(=O)c2cc(-c3ccc4c(c3)OCO4)n[nH]2)cc1OC,-17,96,1.2,x,x,i,0.74
